Screening results as filed in PubChem.
Six1-Eya2 blk: qHTS Assay for Inhibitors of the Six1/Eya2 Interaction; AID 651725, 2012; 360,000 tested, 0.56% active; activity change, % (concentration not given with the values); AlphaScreen GST-Six1/His-Eya2 binding, biochemical; hits give low values; control for the full effect not named in the record; in the data active = activity change below about -65%; inconclusive = about -30% to -65%; inactive = above about -30%; note: % is set by controls: 0 for no effect and ±100 for the full control effect
Target sequence (O00167 whole entry, looked up): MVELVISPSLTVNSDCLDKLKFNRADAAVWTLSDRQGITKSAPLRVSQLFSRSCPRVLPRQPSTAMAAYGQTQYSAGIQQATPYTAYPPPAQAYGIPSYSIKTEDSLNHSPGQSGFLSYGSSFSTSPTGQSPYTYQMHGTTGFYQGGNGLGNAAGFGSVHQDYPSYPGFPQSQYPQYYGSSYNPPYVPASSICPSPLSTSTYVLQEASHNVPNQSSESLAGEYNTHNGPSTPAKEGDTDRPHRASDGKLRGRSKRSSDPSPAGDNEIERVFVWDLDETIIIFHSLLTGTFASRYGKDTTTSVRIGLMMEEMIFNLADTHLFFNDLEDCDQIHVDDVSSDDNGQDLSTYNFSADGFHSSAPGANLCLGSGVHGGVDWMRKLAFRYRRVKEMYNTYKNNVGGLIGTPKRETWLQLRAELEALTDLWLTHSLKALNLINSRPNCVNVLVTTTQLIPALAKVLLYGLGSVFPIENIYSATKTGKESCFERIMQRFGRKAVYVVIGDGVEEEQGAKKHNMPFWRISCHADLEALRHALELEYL
Target sequence (Q15475 whole entry, looked up): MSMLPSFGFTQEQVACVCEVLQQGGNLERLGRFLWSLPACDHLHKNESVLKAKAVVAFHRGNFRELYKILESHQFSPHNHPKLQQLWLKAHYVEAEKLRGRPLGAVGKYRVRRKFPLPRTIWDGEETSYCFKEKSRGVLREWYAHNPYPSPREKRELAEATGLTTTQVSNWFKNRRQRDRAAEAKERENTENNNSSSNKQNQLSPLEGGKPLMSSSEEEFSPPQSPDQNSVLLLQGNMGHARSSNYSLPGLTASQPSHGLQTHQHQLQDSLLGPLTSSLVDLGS
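AlphaScreen luminescence read after one hour at 37 °C in darkness. Pin-transferred compounds met GST-Six1 and His-Eya2 protein (5X stock 250 nM/500 nM) plus glutathione donor and Ni-chelate acceptor beads (5X, 50 ug/mL).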
D2 PAM: Beta-Arrestin HTS for Positive Allosteric Modulators of the Human D2 Dopamine Receptor: Potentiators | 360,000 tested, 0.23% active | AID 624464, 2012 | D(2) dopamine receptor (Homo sapiens), P14416 | DiscoveRx D2 beta-arrestin cells, luminescence, 90 min; 100% = 57 uM dopamine signal | potentiation, % (no concentration beside the values); active = potentiation of 50% or more; inconclusive = 30% to 50%; inactive = 30% or less;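 note: compound concentration not given in the record; tested on top of an EC20 dose of dopamine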
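D2 cells co-treated with compound plus 50 nM dopamine (EC20) for 90 min at 37 deg C to detect potentiation. Beta-arrestin recruitment was read as enzyme-fragment luminescence after 1 h at ambient temperature. Full response was set by 57 uM dopamine.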
gsp ag: qHTS for Agonist of gsp, the Etiologic Mutation Responsible for Fibrous Dysplasia/McCune-Albright Syndrome: qHTS. gsp mutant cells, cAMP HTRF, 30 min; control for the full effect not named in the record. Potency, µM (doses to about 76.9 µM), for the others: top-dose activation (cAMP increase), most hits filed as activators. 340,000 tested, 0.13% active. AID 624287, 2012; active = well fitted activation curve with a large enough effect; inconclusive = small, poorly fitted or top-dose-only effect, or another doubt; inactive = no such curve, though single readings can be large or run the other way; cell line not stated here;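 note: phosphodiesterase inhibitor Ro 20-1724 added with compounds to block cAMP breakdown; potency is the fitted concentration of half-maximal effect; nearly all actives have a fitted effect of over 60% in size; about a fifth of the inactives were tested at one dose only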
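Cells in DMEM/10% FBS with G418 were pretreated with compounds in DMSO plus […] (300 uM stock) for 30 min at 37C. cAMP was measured by HTRF (cAMP-d2 plus anti-cAMP antibody-K) after 30 min at room temperature.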
CtBP-E1A inh: qHTS Assay for Inhibitors of the CtBP/E1A Interaction. CtBP / adenovirus E1A interaction (AlphaScreen). AlphaScreen GST-E1A/His-CtBP binding, 1536-well; hits give low values; control for the full effect not named in the record. 340,000 tested, 0.49% active. AID 651724, 2012. activity change, % (concentration not given with the values); in the data active means activity change below about -65%; inconclusive means about -30% to -65%; inactive means above about -30%; note: % is set by controls: 0 for no effect and ±100 for the full control effect
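In 5 uL wells, 23 nL compound meets equimolar GST-E1A and His-CtBP (5X stock 125 nM each) for 2 h, 37 °C. Beads (5X, 50 ug/mL) then 1 h, 37 °C, dark.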
gsp antag: qHTS for Antagonists of gsp, the Etiologic Mutation Responsible for Fibrous Dysplasia/McCune-Albright Syndrome: qHTS; Potency, µM (top dose mostly 76.9 µM), inactives show top-dose activity change, negative = inhibition, most hits filed as inhibitors; gsp-mutant cells, cAMP HTRF, 30 min; control for the full effect not named in the record; 340,000 tested, 0.4% active; active = falling curve of any shape with a large fitted effect; inconclusive = falling curve, mostly with a smaller effect; inactive = flat or rising curve; cell line not stated here;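 note: intracellular cAMP measured with PDE inhibitor Ro 20-1724 present during compound exposure; potency is the fitted concentration of half-maximal effect; % is set by controls: 0 for no effect and ±100 for the full control effect; nearly all actives have a fitted effect of over 65% in size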
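HTRF cAMP measurement after 30 min RT detection following 30 min, 37C compound treatment alongside […] (added as 300 uM solution) in G418-selected cells seeded at 2000/well and grown 16–24 h.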
D2 agonist: Beta-Arrestin HTS for Positive Allosteric Modulators of the Human D2 Dopamine Receptor: Agonists; 360,000 tested, 0.084% active; DiscoveRx PathHunter D2 beta-arrestin, luminescence, 90 min; 100% = 57 uM dopamine signal; AID 624465, 2012; D(2) dopamine receptor (Homo sapiens), P14416; activation, % (no concentration beside the values); in the data active = activation above about 40%; inconclusive = about 15% to 40%; inactive = below about 15%; note: compound concentration not given in the record; the text of the record calls up to 30% inactive
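DiscoveRx PathHunter D2 beta-arrestin cells (2,100/well) attached overnight, then compound-stimulated 90 min at 37 C in HBSS/10 mM HEPES/0.1% Tween-20 buffer; beta-galactosidase complementation read by luminescence after 1 h at ambient temperature. Dopamine 57 uM final (EC100) as control.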
* = called active by the depositor; ? = inconclusive; · = not tested or not shown; [ ] = dose if it differs, or a comment.

Below each compound – Six1-Eya2 blk | D2 PAM | gsp ag | CtBP-E1A inh | gsp antag | D2 agonist
1. C=CCOc1nc2c(c(=O)n(Cc3ccc(Cl)c(Cl)c3)c(=O)n2C)n1C
  0 | -8 | ? | 2 | -4% | -0.8
2. O=c1[nH]ncc(N2CCN(C(c3ccccc3)c3ccccc3)CC2)c1Cl
  0 | -16 | 8% | -7 | -18% | -1.5
3. Cc1nc(CNS(=O)(=O)c2ccc(Br)cc2)cs1
  -6 | -1 | 27% | 1 | 14% | -0.2
4. C[C@H](CO)N1C[C@H](C)[C@H](CN(C)S(=O)(=O)c2ccc(F)cc2)OCc2cnnn2CCCC1=O
  5 | -5 | -151%[inhibitor] | 5 | · | -8.4
5. CSc1ccc(CN(C)C(=O)CCNS(=O)(=O)c2ccc(C)c(C)c2)cc1
  4 | 7 | ? | -16 | -4% | -3.1
6. COc1cccc(CN2CCN(C(=O)[C@H]3O[C@@H](n4cnc5c(N)ncnc54)[C@H](O)[C@@H]3O)CC2=O)c1
  -19 | -5 | · | -30 | · | -4.8
7. CS(=O)(=O)N1CCc2cc(-c3csc(NC(=O)Cc4ccccc4)n3)ccc21
  -6 | 10 | -5% | 19 | 2% | 1.6
8. Cc1cc(Cl)c(S(=O)(=O)NCC2CCCO2)cc1OCC(N)=O (stereo not given)
  0 | -4 | -31%[inhibitor] | 1 | 6% | -1.7
9. O=C(O)CC(NC(=O)C12CC3CC(CC(C3)C1)C2)c1ccc2c(c1)OCO2 (stereo not given)
  20 | -1 | -4%[15.4 µM] | 29 | -3% | 1.0
10. CCOCCCNC(=O)C1CCN(S(=O)(=O)N(CC(C)C)CC(C)C)CC1
  2 | -9 | ? | -2 | -1% | -0.3
11. O=C(NCCc1ccncc1)Nc1cccc(Cl)c1
  4 | -7 | -27% | 2 | 5% | -1.8
12. COc1ccccc1N1CCN(CC(=O)Nc2ccc(-n3cnnn3)cc2)CC1
  -3 | -25 | 1%[15.4 µM] | 12 | -1% | -6.2
13. Cc1cccc(N2C(=O)CN=C2Nc2nc(C)cc(C)n2)c1
  -2 | 2 | -1% | 6 | -11% | -2.8
14. CCOc1cc(-c2nccc3cc(OC)c(OC)cc23)cc(OCC)c1OCC
  -12 | 3 | 15% | 1 | 25% | -0.6
15. COc1ccc(Br)cc1CN(C)C(=O)c1ccc2c(c1)NC(=O)C(C)S2 (stereo not given)
  0 | -9 | -3%[15.4 µM] | 7 | 1% | -4.9
16. CNC(=O)C(=O)NCC1OCCCN1S(=O)(=O)c1ccc2c(c1)OCCO2 (stereo not given)
  -7 | -9 | -1%[15.4 µM] | 1 | 10% | 4.1
17. Cc1nnc(SCCn2c(N(C)Cc3ccccc3)nc3c2c(=O)[nH]c(=O)n3C)s1
  -2 | -11 | -68%[inhibitor] | -4 | -11% | -4.0
18. CN(CC(=O)NCCN1CCN(c2ccccc2)CC1)S(=O)(=O)c1ccc2c(c1)CCC(=O)N2
  0 | -6 | -19% | 3 | 3% | 1.0
19. CCn1c(=O)cc(SCC(=O)Nc2cc(OC)c(OC)c(OC)c2)c2ccccc21
  -17 | -3 | 24% | -12 | 6% | 1.1
20. CC(C)NC(=O)Nc1cccc2c1O[C@H](CN(C)C(=O)Nc1ccc(C(F)(F)F)cc1)[C@@H](C)CN([C@H](C)CO)C2=O
  -2 | · | · | -3 | -8% | 1.1
21. O=C(Nc1c(Cl)ccc2nsnc12)c1ccco1
  -12 | -8 | 30% | 0 | -2% | -2.0
22. CCCCC(CC)CNC(=O)C1CC=CCC1C(=O)O (stereo not given)
  14 | -4 | 0% | -2 | -1% | -0.4
23. O=C(C1CCN(S(=O)(=O)c2cccnc2)CC1)N1CCN(c2ccccc2Cl)CC1
  7 | -23 | -31%[inhibitor] | 11 | -6% | 1.3
24. O=C(NCCSc1ccccc1)c1ccc(Br)cc1
  26 | -19 | -10% | 14 | 2% | -2.7
25. COc1ccccc1N1C(=O)C(Cl)=C(N2CCCC2)C1=O
  9 | -11 | -10%[15.4 µM] | 20 | -12% | -7.7
26. COc1ccccc1[C@@H]1C(c2ccccc2)=NN(c2ccccc2)[C@H]1C(=O)N1CCOC1=O
  48 | · | · | 30 | 3% | 0.1
27. CC(=O)NCCOc1nc(N(C)C)nc(N2CCCCC2)n1
  1 | -8 | -3% | · | -10% | -3.2
28. Cc1ccc(/C=N/n2c(C)cc(C)c(C#N)c2=O)o1
  -3 | 0 | -2% | 1 | 20% | -0.1
29. CCOC(=O)N1CCN(S(=O)(=O)c2ccc(OC)cc2)CC1
  5 | -3 | 13% | 2 | 2% | -4.3
30. O=C(Nc1nnc(Cc2ccc(F)cc2)s1)Nc1ccccc1F
  10 | -18 | -7% | · | 9% | 1.8

Three entries from above, ordered by number of heavy atoms, rising:
Below each compound – Six1-Eya2 blk | D2 PAM | gsp ag | CtBP-E1A inh | gsp antag | D2 agonist
25. COc1ccccc1N1C(=O)C(Cl)=C(N2CCCC2)C1=O
  9 | -11 | -10%[15.4 µM] | 20 | -12% | -7.7
17. Cc1nnc(SCCn2c(N(C)Cc3ccccc3)nc3c2c(=O)[nH]c(=O)n3C)s1
  -2 | -11 | -68%[inhibitor] | -4 | -11% | -4.0
26. COc1ccccc1[C@@H]1C(c2ccccc2)=NN(c2ccccc2)[C@H]1C(=O)N1CCOC1=O
  48 | · | · | 30 | 3% | 0.1

Next compounds:
Below each compound – Six1-Eya2 blk | D2 PAM | gsp ag | CtBP-E1A inh | gsp antag | D2 agonist
31. Cc1cc(C)n2cc(CSc3ccc(Cl)cc3)nc2n1
  -2 | -6 | -21% | 4 | -21% | -2.8
32. Cc1cnc(NC(=O)Nc2ccccc2)c(C)n1
  4 | -7 | -1% | 3 | -7% | -2.5
33. O=C(c1ccc(S(=O)(=O)N2CCOCC2)cc1)N1CCc2ccccc21
  -1 | -2 | 32% | 3 | -3% | -1.1
34. CC(C)NC(=O)c1c(O)c2cccc3c2n(c1=O)CCC3
  9 | -4 | 17% | -3 | -5% | -5.6
35. O=C(Nc1ccc(Cl)cc1)N1CCC(c2ccccc2)C1 (stereo not given)
  7 | -12 | 0%[15.4 µM] | 2 | -11% | -3.8
36. CC1CCCCN1C(=O)c1ccc(OC2CCN(S(=O)(=O)N(C)C)CC2)cc1 (stereo not given)
  18 | 0 | 15% | 7 | -4% | 7.6
37. CS(=O)(=O)N1CCCC(C(=O)Nc2ccc(F)cc2)C1 (stereo not given)
  1 | 0 | 3%[15.4 µM] | -1 | 7% | 0.6
38. CC(=O)c1cccc(NC(=O)C23CC4CC(C2)CC(n2cncn2)(C4)C3)c1
  4 | -7 | -1%[15.4 µM] | 6 | 10% | 0.2
39. CCOc1cc(/C=C/C(=O)Nc2ccc(C(=O)NCCN(CC)CC)cc2)ccc1OCC(C)C
  -7 | 15 | -6% | · | 14% | ?
40. O=C(Nc1ccc(-n2cnnn2)cc1)C1CCCN1C(=O)NC1CCCCC1 (stereo not given)
  3 | -5 | 12%[15.4 µM] | 3 | -2% | -3.0
41. CN(C)c1ncc(S(=O)(=O)c2ccccc2)c(=O)[nH]1
  8 | -5 | 16% | · | -2% | -5.5
42. COCC(C)n1c(SCc2nc(N)nc(Nc3ccccc3C)n2)nc2ccccc2c1=O (stereo not given)
  13 | -11 | -35%[inhibitor] | 0 | 17% | -1.3
43. COC(=O)c1ccc(N2CCN(c3ccccc3)CC2)c(N)c1
  -2 | 3 | 26% | · | -5% | 1.9
44. COc1ccc(C(=O)CC(=O)C(=O)Nc2cc(OC)c(OC)c(OC)c2)cc1
  -3 | -7 | ? | · | -14% | -4.8
45. CN1CCN(C(=O)c2ccc(-c3ccc(F)c(F)c3)c3ccoc23)CC1
  0 | -14 | · | 0 | · | -2.2
46. COCCCNc1ncnc2nc[nH]c12
  -1 | -1 | 17% | 5 | 14% | -2.0
47. CC(C)=CCCC(C)CN1CCC(n2nccc2NC(=O)c2ccccc2)CC1 (stereo not given)
  -1 | -7 | 2% | · | -3% | -2.0
48. Cc1ccc(CNc2cnccn2)s1
  2 | -6 | 1% | · | 7% | -0.1
49. C=CCn1c(O)c(N=NC(=S)Nc2ccccc2F)c2cc(S(=O)(=O)N3CCOCC3)ccc21
  -25 | -4 | -5%[15.4 µM] | -16 | -24% | 6.9
50. CCOc1ccc(-c2nnc(SCC(=O)N3CCCC3)o2)cc1
  10 | -8 | 1%[15.4 µM] | 0 | 1% | -2.9
51. O=C(N/N=C/c1cccc2ccccc12)c1ccc(CN2CCOCC2)cc1
  -8 | -12 | 6% | -6 | 0% | -0.5
52. Cc1ccc(S(=O)(=O)N(C)C)cc1NC(=O)COC(=O)CNC(=O)C12CC3CC(CC(C3)C1)C2
  14 | -22 | 2% | -6 | -1% | -6.5
53. Cc1cc(NC(=O)c2c(-c3c(Cl)cccc3Cl)noc2C)n(C)n1
  -7 | -7 | -2%[15.4 µM] | 4 | 13% | 0.0
54. NNC(=S)NCc1cccnc1
  5 | -1 | 6% | 11 | 3% | 2.2
55. CCOc1ccc(NC(=O)CCSc2ccc3ccccc3n2)cc1
  0 | -6 | ? | -8 | -7% | -0.8
56. CC(=O)Nc1ccc(S(=O)(=O)N2CCC(C(=O)Nc3nccs3)CC2)cc1
  0 | 1 | ? | 2 | 9% | 4.1
57. Cc1ccc(N(C(C)C(=O)O)S(=O)(=O)c2c(C)[nH]c(=O)[nH]c2=O)cc1 (stereo not given)
  6 | -4 | -55%[inhibitor] | 6 | 3% | 0.0
58. CCOc1nc(NC(=O)NS(=O)(=O)Oc2ccccc2Cl)nc(-c2ccccc2)n1
  -1 | -9 | 9% | 3 | 0% | -2.6
59. COc1ccc(NC(=O)C2(C)Cc3c(-c4ccc5c(c4)OCO5)ccnc3O2)cc1OC (stereo not given)
  -16 | 0 | · | -18 | · | -0.2
60. Cc1cccc(OCC(=O)Nc2ccc(S(=O)(=O)Nc3ccccn3)cc2)c1
  -4 | -1 | 1% | 2 | ? | 0.5
61. O=C1CN(C(=O)CSc2nnc(C3CC3)n2-c2ccccc2)c2ccccc2N1
  -8 | -6 | -15% | -2 | 18% | -3.9
62. O=C(/C=C/c1ccc(S(=O)(=O)N2CCOCC2)cc1)N1CCCCC1
  7 | -2 | 3%[15.4 µM] | -2 | -4% | -5.2
63. O=C(OCc1ccccn1)c1ccc(COc2ccc3ccccc3c2)o1
  9 | -6 | -11% | · | ? | -0.9
64. Cc1ccc(C(=O)CSc2nnc(-c3ccccc3N)n2C)cc1C
  -3 | 2 | 14% | -3 | ? | 0.2
